Screens: PubChem BioAssay, several laboratories
Yeast UUG start = modulators of yeast start codon fidelity, primary screen, whole organism, S. cerevisiae, single point, plate reader. S. cerevisiae UUG-firefly luciferase reporter, luminescence/redox ratio. activity score, % at 18.7 µM. 350,000 tested, 0.13% active;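 active means replicate mean at a twofold rise or more, about +100% in these data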;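 further: firefly luciferase made from a UUG start codon reports start codon fidelity; reporter light over untreated wells divided by growth signal over untreated wells; some hits fall short of that in this replicate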
MT1-MMP act inh = blockers of MT1-MMP proenzyme processing, primary screen, HT1080 RFP-PRO-GFP cells, GFP/RFP fluorescence; GFP/RFP ratio change, % at 20 µM; Matrix metalloproteinase-14 (Homo sapiens), P50281; 360,000 tested, 0.061% active; AID 651647, 2012; GFP/RFP ratio fluorescence, overnight; percent of plate control window, DMSO zero;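 active means GFP/RFP ratio change of at least 30% with cell ATP level not reduced by more than half and red fluorescence within 50% of control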; further: strong numbers were not always called active
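Test system: HT1080 cells expressing an RFP-PRO-GFP fluorescent reporter construct / Compound dosing: single-point 20 µM compound, 1% DMSO / Schedule: cells overnight before dosing, compound overnight, 37 °C, 5% CO2 / Evaluation: GFP/RFP fluorescence ratio / Control set: DMSO and RFP-L50D-GFP cell wells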
eIF4H inh = human eIF4H binding inhibitors, primary screen, translation initiation inhibitor project, biochemical, uHTS, fluorescence polarization | eIF4H fluorescence polarization binding assay | inhibition, % at 35 µM | Eukaryotic translation initiation factor 4H (Homo sapiens), Q15056 | AID 2012, 2009 | 290,000 tested, 0.94% active;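 active means 50% or more with normal probe brightness, or confirmed in later tests; about a fifth of its hits are not listed in these tables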;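 further: calls also rest on retests at 20 µM and on dose response follow-up; 0% = protein and probe with vehicle and 100% = probe without protein; strong numbers were not always called active; many hits fall short of the cut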
Rce1 inhib = yeast Rce1p protease inhibitors, primary screen, biochemical, fluorescence, cell-free homogeneous; CAAX prenyl protease 2 (Saccharomyces cerevisiae (strain ATCC 204508 / S288c)), Q03530; yeast membranes, quenched prenylated peptide cleavage fluorescence; calls only; 290,000 tested, 0.27% active; AID 2563, 2010;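 active means fall in fluorescence gain of 50% or more versus controls, with final raw signal at or below 3038400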;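 further: plate controls were neutral control wells for no effect and wells lacking membranes for full effect; tested at 10 µM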
HIV Env fusion = inhibitors of HIV-1 Env-driven cell-cell fusion, primary screen, HeLa-JRFL effector, CEM21 target cells, luciferase | AID 651610, 2012 | 360,000 tested, 1.1% active | inhibition, % at 12.3 µM;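 active means mean replicate inhibition score of at least 50 and every replicate individually at or above 50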;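 further: 0% = plate neutral controls and 100% = maraviroc near 300 nM; one replicate is shown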
CSC inhib = cancer stem cell viability inhibitors, primary screen, luminescence | cancer stem cell-like cells viability | inhibition, % at 7.5 µM | 300,000 tested, 1.1% active | AID 2717, 2010;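 active means mean at 75% or more and at least half the replicates too; tested in HMLE shEcad cells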;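 further: 0% = median of negative and 100% = median of positive control wells; the first replicate is given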
PABP FP inh = PABP poly(A) RNA binding inhibitors, primary screen, biochemical, fluorescence polarization, uHTS; inhibition, % at 35 µM; AID 2014, 2009; 290,000 tested, 1% active; Polyadenylate-binding protein 1 (Homo sapiens), P11940;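 active means 50% or more with normal probe brightness, or confirmed in later tests; about a fifth of its hits are not listed in these tables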;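 further: calls also rest on retests at 20 µM and on dose response follow-up; controls were probe without protein and protein plus probe with vehicle; some compounds called inactive have numbers as strong as hits; many hits fall short of the cut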
Target sequence (P11940 whole entry, looked up): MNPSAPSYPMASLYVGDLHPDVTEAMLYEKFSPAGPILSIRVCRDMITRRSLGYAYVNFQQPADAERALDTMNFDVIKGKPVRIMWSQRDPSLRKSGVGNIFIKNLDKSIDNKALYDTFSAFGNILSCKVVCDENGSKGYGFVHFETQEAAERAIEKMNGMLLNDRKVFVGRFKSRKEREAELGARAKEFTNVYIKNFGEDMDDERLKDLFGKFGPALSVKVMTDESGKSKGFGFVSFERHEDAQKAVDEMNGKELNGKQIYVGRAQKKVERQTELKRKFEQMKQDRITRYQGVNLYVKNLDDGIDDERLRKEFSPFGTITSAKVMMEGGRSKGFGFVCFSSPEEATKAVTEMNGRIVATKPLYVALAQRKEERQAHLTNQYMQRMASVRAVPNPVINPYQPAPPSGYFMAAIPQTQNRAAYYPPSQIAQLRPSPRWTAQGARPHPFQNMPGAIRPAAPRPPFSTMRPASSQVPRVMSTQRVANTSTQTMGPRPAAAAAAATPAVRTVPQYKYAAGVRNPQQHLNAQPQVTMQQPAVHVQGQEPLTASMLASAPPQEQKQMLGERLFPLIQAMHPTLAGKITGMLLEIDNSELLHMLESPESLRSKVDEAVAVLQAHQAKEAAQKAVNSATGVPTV
eIF4H inh retest = also measured in eIF4H inh; calls as there; inhibition, %; compound at 20 µM; confirmation average;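 mean of two retest wells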
PABP FP inh retest = also measured in PABP FP inh; calls as there; inhibition, %; compound at 20 µM; confirmation repeats;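 mean of two retest wells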
MT1-MMP act inh RFP = recorded beside MT1-MMP act inh, whose call it bears; RFP signal change, %; measured here: RFP expression control read;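 0 = vehicle wells; hits needed this value within 50% of zero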
* marks the source's active call; other numbers are inactive results; i = inactive; . = not tested or not shown.

SMILES | Yeast UUG start | MT1-MMP act inh | MT1-MMP act inh RFP | eIF4H inh | Rce1 inhib | HIV Env fusion | CSC inhib | PABP FP inh | others
CCOC(=O)N1CCN(CCC(=O)Nc2cccc(C)c2)CC1 | -24.8 | 0.6 | 2.2 | -0.6 | i | -12.3 | -2.9 | 4.6
O=C(O)c1ccc2noc(-c3ccccc3)c2c1 | -20.2 | -2.7 | 2.5 | 15.4 | i | . | 3.9 | 34.2
O=S(=O)(NCc1ccco1)N1CCOCC1 | -18.4 | -0.1 | 2.6 | -10.2 | i | . | -1.1 | -5.5
O=C(c1ccc([N+](=O)[O-])cc1)N1CCSC1c1cccc(Cl)c1 (stereo not given) | . | -3.2 | -0.7 | -6.0 | i | 11.7 | -7.2 | -7.7
O=C(CN1C(=O)NC2(CCCCCCC2)C1=O)NCc1ccccc1 | -10.7 | 1.9 | 2.5 | . | . | . | -18.5 | .
S=c1nc(-c2ccccc2)n(CCCn2ccnc2)c2c1CCCC2 | -9.3 | -0.4 | 3.0 | -5.9 | i | -12.3 | 1.9 | 7.4
CC(C)C[C@H]1CN([C@@H](Cc2ccc(O)cc2)CN2CCC[C@@H]2CN2C(=O)C(=O)NC[C@@H]2Cc2ccccc2)C(=O)C(=O)N1CC1CCCCCC1 | 21.7 | 6.7 | 0.6 | . | . | 30.0 | . | .
Cc1cc(C(=O)Nc2c(F)cc(F)cc2Br)no1 | -18.1 | -1.1 | -0.6 | 5.5 | i | -23.6 | -3.1 | -1.0
COc1ccccc1C(=O)NNC(=O)c1ccncc1 | . | 0.9 | 2.9 | 0.0 | i | -13.1 | -7.4 | 1.6
Cc1ccccc1-c1nc(C#N)c(N2CCCCC2)o1 | -5.7 | 4.2 | 3.0 | -8.5 | i | -5.2 | -5.8 | -15.1
Oc1cccc(Oc2ncc(C(F)(F)F)cc2Cl)c1 | . | -3.1 | 1.0 | 11.9 | i | 17.4 | 0.4 | 9.8
Cc1nc(NC(=O)C23CC4CC(CC(C4)C2)C3)sc1Cc1ccc2c(c1)OCO2 | -16.4 | -2.0 | -18.0 | -13.8 | i | . | 70.6 | -2.4
COc1ccc(/C=C/C(=O)NC(=S)NNC(=O)c2cccnc2)cc1 | . | 3.9 | 3.5 | 13.6 | i | 5.1 | 12.7 | 18.6
CCC12CN3CC(CC)(CN(C1)C3c1c(O)ccc3ccccc13)C2=O (stereo not given) | 5.9 | 0.9 | 5.0 | -2.5 | i | . | . | 7.0
COc1ccc(S(=O)(=O)Oc2cccc(/C=N/N=C3/NC(=O)C(CC(=O)O)S3)c2)cc1 (stereo not given) | . | 2.6 | 5.4 | -2.3 | i | 3.5 | 7.2 | 10.3
Cc1cccc(NCC(=O)N/N=C\c2c[nH]c3ccccc23)c1 | . | 2.4 | 1.5 | 0.2 | i | -9.0 | 27.6 | 11.0
Cc1ccc(NC(=O)CCC(=O)NNC(=O)c2ccco2)cc1C | -6.0 | 4.9 | 2.2 | -3.8 | i | -5.4 | -14.9 | 2.5
C=C1c2cc(C)ccc2NC(=O)N1c1ccccc1 | . | -0.9 | 1.9 | -2.1 | . | 9.1 | 8.1 | 1.9
COCCN1Cc2cccc(C(=O)Nc3c(C)cccc3C)c2C1=O | -14.6 | 3.3 | 5.8 | -7.1 | i | . | -8.2 | -11.1
Cc1ccc(S(=O)(=O)N2CCCOC2CNC(=O)C(=O)NC2CCCC2)cc1 (stereo not given) | -6.6 | -1.8 | -7.6 | -5.9 | i | -15.9 | 9.2 | -9.1

Molecules above that have a halogen (3):
SMILES | Yeast UUG start | MT1-MMP act inh | MT1-MMP act inh RFP | eIF4H inh | Rce1 inhib | HIV Env fusion | CSC inhib | PABP FP inh | others
O=C(c1ccc([N+](=O)[O-])cc1)N1CCSC1c1cccc(Cl)c1 (stereo not given) | . | -3.2 | -0.7 | -6.0 | i | 11.7 | -7.2 | -7.7
Cc1cc(C(=O)Nc2c(F)cc(F)cc2Br)no1 | -18.1 | -1.1 | -0.6 | 5.5 | i | -23.6 | -3.1 | -1.0
Oc1cccc(Oc2ncc(C(F)(F)F)cc2Cl)c1 | . | -3.1 | 1.0 | 11.9 | i | 17.4 | 0.4 | 9.8

(cont.)
SMILES | Yeast UUG start | MT1-MMP act inh | MT1-MMP act inh RFP | eIF4H inh | Rce1 inhib | HIV Env fusion | CSC inhib | PABP FP inh | others
CCC(=O)OCC(=O)[C@@]1(OC(=O)CC)[C@@H](C)C[C@H]2[C@@H]3CCC4=CC(=O)C=C[C@]4(C)[C@@]3(Cl)[C@@H](O)C[C@@]21C | -4.4 | -4.7 | -4.0 | . | . | i | 7.2 | .
CCc1nc(Nc2ccc(F)cc2)c2oc3ccccc3c2n1 | -5.9 | 0.0 | -1.9 | -4.9 | i | 27.3 | 24.9 | 3.5
CC1CN(C(=O)CCCN2C(=O)c3ccccc3C2=O)CC(C)O1 (stereo not given) | -7.2 | 2.8 | 6.6 | -14.2 | i | -51.5 | . | 4.6
Cc1cc(C)cc(-n2c(C)c3c(C)nnc(C)c3c2C)c1 | . | -3.8 | 3.1 | 11.7 | i | -86.6 | 8.7 | 10.7
O=C(NCc1ccncc1)C(=O)C1C(=O)Nc2ccccc21 (stereo not given) | . | -14.4 | -4.0 | 18.8 | . | 5.3 | -12.9 | 25.0
CC1Cc2nc(SCC(=O)Nc3nc4ccccc4s3)n(C)c(=O)c2S1 (stereo not given) | -4.5 | -6.2 | -23.3 | -6.8 | i | 30.6 | 2.3 | -3.9
Cc1nn2cnnc2c(C)c1Cc1c(F)cccc1Cl | -9.0 | 3.5 | 2.7 | -8.0 | i | 1.0 | -6.5 | -9.5
O=C(Nc1cccc(Br)c1)c1ccc(CN2CCc3ccccc3C2)cc1 | 0.9 | -1.9 | -30.1 | -5.3 | i | 17.3 | 25.4 | -2.8
CC(=O)CCn1cc([N+](=O)[O-])nc1C | . | 1.9 | 4.5 | -0.8 | i | -21.2 | -12.3 | 1.7
O=C(N/N=C/c1ccc(O)cc1O)/C(=C/c1ccccc1)CCO | -24.2 | 1.9 | -5.0 | 8.9 | i | 28.8 | 96.6* | 6.6
O=C(CCN1C(=O)/C(=C/c2ccc3c(c2)OCO3)SC1=S)Nc1cccc(C(=O)O)c1 | -12.7 | 4.6 | 7.3 | -4.4 | i | -10.3 | -13.3 | 12.3
O=C(Nc1cccc([N+](=O)[O-])c1)NC1CCS(=O)(=O)C1 (stereo not given) | -14.4 | 0.6 | 2.6 | -8.1 | i | 0.5 | -4.2 | -1.5
CC(NC1CCCC1)c1ccccc1 (stereo not given) | -8.9 | -3.1 | 2.4 | 7.4 | i | 11.3 | 4.1 | 10.9
O=C(COc1cc(F)ccc1[N+](=O)[O-])NCCCc1ccccc1 | . | 2.5 | 0.0 | -1.8 | i | 2.5 | 7.6 | 5.6
CN(C)c1ccc(/C=C(\NC(=O)c2ccccc2)C(=O)NCc2ccncc2)cc1 | 11.7 | 2.8 | 4.7 | -23.5 | i | 1.3 | 4.8 | -4.3
CCOc1cc(C)c(S(=O)(=O)N2CCCC2)cc1C | -10.9 | -1.9 | -3.1 | -8.7 | i | 50.0 | -4.1 | 20.2
O=C1OCc2cccc3cccc1c23 | -10.6 | 5.9 | 1.6 | -1.6 | i | -124.8 | -6.3 | -1.1
CCN1CCC(NCCc2ccc(F)cc2)CC1 | -23.9 | 4.3 | -0.2 | -1.5 | i | 3.9 | -1.8 | -1.0
CCOc1ccc(NC(=O)CN2CCN(Cc3c(F)cccc3F)CC2)cc1 | -8.8 | 1.7 | 0.8 | -2.5 | i | 3.1 | -2.8 | 7.8
CN(CC(=O)Nc1ccccc1Cl)C(=O)COC(=O)c1ccc(Cl)cc1[N+](=O)[O-] | 16.7 | 0.5 | 2.5 | -2.2 | i | 2.3 | -0.8 | -9.2
Cc1ccc(Cl)cc1N1CCN(c2cccc[n+]2C)CC1 | -23.8 | -11.5 | -11.8 | 6.2 | i | 15.6 | 32.4 | 4.9
CCOP(=O)(OCC)C(Nc1cccc(C(F)(F)F)c1)c1ccc(Br)cc1 (stereo not given) | . | . | . | 4.3 | i | 0.7 | . | 0.5
O=S(=O)(NC(=NC1CCCC1)C(F)(F)F)c1ccccc1 | -8.9 | 4.3 | 1.5 | -11.7 | i | . | 17.2 | 1.9
COc1ccccc1NC(=O)CSc1nnc(Cn2cnc3ccccc32)n1C | -27.4 | -0.9 | 5.1 | -3.6 | i | 23.5 | . | -7.7
Cc1ccc(CSc2ncnc3c2cnn3-c2ccccc2)cc1 | . | 4.1 | -1.1 | -4.9 | i | -11.4 | 2.0 | 14.3
Cc1ccc(C)c(NC(=O)CSc2ccc(-c3cccs3)nn2)c1 | -14.9 | 2.0 | -2.7 | 21.6* | i | -47.9 | -4.1 | 120.4* | eIF4H inh retest=98.6*;PABP FP inh retest=84.8*
O=C(CCN1CCN(c2ccccc2)CC1)NNC(=O)Cc1c(F)cccc1Cl | -13.7 | 7.2 | 5.0 | . | . | -32.5 | . | .
Cc1ccc(NC(=O)Cn2nnc(C(=O)NCc3cccs3)c2N)cc1Cl | 2.8 | 2.1 | -3.5 | -10.4 | i | -5.8 | 2.1 | -2.3
CC1C(=O)N2CCCc3cc(NC(=O)C(=O)NCCc4c[nH]c5ccccc45)cc1c32 (stereo not given) | -1.2 | -7.1 | -2.6 | . | i | . | 12.4 | .
O=C(CN1CCC(n2nnc3cc(F)ccc32)CC1)N1CCc2ccccc2C1 | -9.3 | -0.5 | -0.6 | -4.0 | i | . | 0.6 | -9.4
Cn1c(COc2cccc3ccccc23)nnc1SCC(=O)OC1CCCCC1 | -11.9 | -1.7 | -2.7 | -4.3 | i | -7.1 | 13.7 | 4.6
C[C@]12c3[nH]c4ccccc4c3CCN1C(=O)C(CC(=O)NCc1cccc(C(F)(F)F)c1)C[C@@H]2C(=O)N1CCOCC1 (stereo not given in full) | 20.8 | 2.1 | -1.0 | . | . | -61.3 | 13.5 | .
COc1ccc(OC)c(C2C(C(N)=O)=C(C)Nc3nc(CCCO)nn32)c1 (stereo not given) | -20.4 | 2.3 | 2.3 | -5.0 | i | -3.6 | -3.5 | -0.3
O=C(NNC(=S)Nc1ccccc1)c1cccnc1 | -16.1 | -0.1 | 5.0 | -12.4 | i | 9.8 | -4.5 | -8.2
Cc1sc2nc(CSCC(=O)Nc3c(Cl)cccc3Cl)[nH]c(=O)c2c1C | . | -6.7 | 1.7 | 10.0 | i | -6.4 | -7.0 | 4.3
O=C(Nc1ccc(S(=O)(=O)NC2=NCCCCC2)cc1)c1ccc(C(F)(F)F)cc1 | . | 3.2 | -12.2 | -4.8 | i | 16.6 | -8.5 | 1.8
O=C(O)c1ccc2c3c(cccc13)C(=O)N(OS(=O)(=O)c1ccccc1)C2=O | -10.5 | 1.7 | 3.0 | -2.3 | i | -9.8 | 0.2 | 11.0
Cc1c(Cl)cccc1NC(=O)CSc1nnc(CCNC(=O)OC(C)(C)C)o1 | -10.9 | 0.5 | -2.0 | -3.5 | i | 9.6 | 12.1 | -0.4
